From PubChem
Hedgehog cleavage: Drosophila hedgehog isoform A inhibitors, primary screen, biochemical, plate reader, single concentration (AID 588832); 8,000 tested, under 10 active; inhibition, % at 30.3 µM; Biochemical plate reader assay, Hedgehog inhibition; stronger effect = higher value; in the data active means inhibition from about 57%;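 further: 0% = neutral control wells and 100% = positive control wells; cholesterol-driven self-cleavage of fly hedgehog protein by fluorescence polarization; read one hour after cholesterol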
Starred values were filed as active, the others as inactive. This is a subset. The share of hits here may be higher or lower than overall.

Hedgehog cleavage,molecule
1,CCOC(=O)N1CCC(N2Cc3cccc(C(=O)Nc4ccc(OC)c(OC)c4)c3C2=O)CC1
6,CC(=O)c1cccc(NC(=O)c2cc3ccccn3n2)c1
4,CCCCn1c(CNC(=O)c2cccs2)nc2ccccc21
2,CC(C)=CCc1c(O)c(CC=C(C)C)c2occ(-c3ccc(O)cc3)c(=O)c2c1O
0,O=C(CCN1C(=O)[C@@H]2Cc3ccccc3CN2C1=O)N[C@@H](Cc1ccccc1)C(=O)O
11,CCOC(=O)N1CCN(CC(=O)Nc2cc3c(cc2C(C)=O)OCO3)CC1
-36,COC(=O)c1cc(=O)n(Cc2ccco2)c(=Nc2ccc(F)c(Cl)c2)s1
7,CCN1CCN(CCCNC(=O)CCC(=O)N2CCOc3ccc(Cl)cc32)CC1
0,Nc1nonc1-n1nnc(C(=O)N/N=C/c2cccc(Cl)c2)c1CN1CCCC1
-1,CCCCNC(=O)CS(=O)Cc1nc(-c2cccc(C)c2)oc1C (stereo unspecified)
20,COc1ccc(OC)c(C2C(C(=O)Nc3ccccc3OC)=C(C)Nc3nc(CCCO)nn32)c1 (stereo unspecified)
5,Cc1ccc(C(O)(COC(=O)C(C)C)COC(=O)C(C)C)c(O)c1
8,CCCS(=O)(=O)NCc1cn2c(C)csc2n1
5,COC(=O)c1nccc2c1[nH]c1ccccc12
3,CCC(C)NC(=O)c1cc(CC(C)C)on1 (stereo unspecified)
24,Cc1cccc(CSC2=NN3CCCC(=O)N=C3S2)c1
4,Cc1cccc(OCC(=O)Nc2nnc(S(=O)(=O)N3CCC(C)CC3)s2)c1
11,CC(C)[C@H](NC(=O)[C@@H]1Cc2c([nH]c3ccccc23)C2c3ccccc3C(=O)N21)C(=O)N1CCC[C@@H]1C(=O)O (stereo partly specified)
5,C=CCn1c(NCc2cc(C)ccc2O)nc2ccccc21
9,CC1Cn2c(nnc2-c2cccc(Cl)c2)S1 (stereo unspecified)
9,Cc1ccc(S(=O)(=O)N[C@@H](CC(C)C)C(=O)N2CCC(C(=O)N[C@H](C(=O)O)C(C)C)CC2)cc1
12,COc1ccccc1N1CCN(C(c2cccs2)C(C)NS(=O)(=O)c2ccccc2)CC1 (stereo unspecified)
5,COc1ccccc1CNC(=O)CCC(=O)n1ncc2cc(C)ccc21
7,COc1cccc2c(=O)n(CC(=O)N3CCCc4ccccc43)ccc12
2,O=C1CCc2cc(S(=O)(=O)N3CCCC3C(=O)N3CCN(c4ccccc4)CC3)ccc2N1 (stereo unspecified)

Ordered by length of the SMILES (low to high): 3 of the compounds above.
Hedgehog cleavage,molecule
8,CCCS(=O)(=O)NCc1cn2c(C)csc2n1
2,CC(C)=CCc1c(O)c(CC=C(C)C)c2occ(-c3ccc(O)cc3)c(=O)c2c1O
9,Cc1ccc(S(=O)(=O)N[C@@H](CC(C)C)C(=O)N2CCC(C(=O)N[C@H](C(=O)O)C(C)C)CC2)cc1

(next part)
Hedgehog cleavage,molecule
17,CCCN(CCC)CCCNC(=O)c1cc2c(=O)n(C)c3ccccc3c2n1C
2,Cc1c(N)cccc1N
3,CCCc1nc(SCC(=O)Nc2nnc(SCC)s2)c2c(=O)n(C)c(=O)n(C)c2n1
7,CCCCNC(=O)Cn1c2c(c(-c3ccccc3Cl)cc1=O)CCC2
10,CCOc1ccc(CCNc2cc(C)nc3ncnn23)cc1OCC
9,CCOC(=O)C1CCCN(C(=O)c2cn(C)c3ccc(S(=O)(=O)N(C)C)cc3c2=O)C1 (stereo unspecified)
3,COc1ccc(Cn2c(=N)c(C(=O)NCC3CCCO3)cc3c(=O)n4ccccc4nc32)cc1 (stereo unspecified)
3,COC(=O)c1ccccc1S(=O)(=O)NCc1nc2nc(C)cc(C)n2n1
7,CC(C)(C)c1ccc(O)c(O)c1
12,COc1ccccc1CNC(=O)CS(=O)Cc1nc(-c2ccccc2C)oc1C (stereo unspecified)
25,Cc1ccc(C)c(NC(=O)C2CCCN(S(=O)(=O)c3ccc4[nH]c(=O)ccc4c3)C2)c1 (stereo unspecified)
3,Oc1c(C(c2cccs2)N2CCN(c3cccc(Cl)c3)CC2)sc2ncnn12 (stereo unspecified)
2,CC(C)Cc1cc(C(=O)NCc2cccs2)no1
2,CCOc1ccc(NC(=O)c2cc3c(C)nc4ccccc4c3o2)cc1
5,COc1cc(NC(=O)c2cc3c(C)nc4ccccc4c3o2)cc(OC)c1OC
7,Cc1ccc(-c2nc(CS(=O)CC(=O)NCc3ccc4c(c3)OCO4)c(C)o2)cc1 (stereo unspecified)
3,N=C1/C(=C\c2ccc(OC(=O)c3ccccc3)cc2)C(=O)N=C2SC(N3CCOCC3)=NN12
7,Cc1ccc(NC(=O)CSc2nc3ccccc3nc2N2CCCC2)cc1
8,CCOC(=O)N1CCN(C(=O)c2cc3cc(Br)ccc3oc2=O)CC1
9,Cc1cc2[nH]c(=O)c(=O)[nH]c2cc1S(=O)(=O)NCc1ccc(Cl)cc1
2,CC12CN3CC(C)(CN(C1)C3c1ccc(Cl)cc1Cl)C2=O (stereo unspecified)
7,CCNc1ccccc1C(=O)O
-2,Cc1ccc(N2CSC3=C(C#N)C(c4cccs4)CC(=O)N3C2)cc1 (stereo unspecified)
-8,COc1ccccc1-c1nnc(SCC(=O)NC2CCCCC2)o1
5,O=C(CCN1C(=O)[C@@H]2Cc3ccccc3CN2C1=O)N[C@@H](C(=O)O)c1ccccc1

Three consecutive records from above:
Hedgehog cleavage,molecule
17,CCCN(CCC)CCCNC(=O)c1cc2c(=O)n(C)c3ccccc3c2n1C
2,Cc1c(N)cccc1N
3,CCCc1nc(SCC(=O)Nc2nnc(SCC)s2)c2c(=O)n(C)c(=O)n(C)c2n1

(continued)
Hedgehog cleavage,molecule
15,CCc1nn(CC(=O)N2CCN(CC)CC2)c(=O)c2cc3sccc3n12
0,CCN1CCN(C(=O)CS(=O)(=O)Cc2nc(-c3ccc(C)cc3)oc2C)CC1
6,Cc1ccc(-c2nc3cccnc3s2)cc1NS(=O)(=O)c1cccs1
4,O=c1cc(-c2ccccc2)oc2cccc(O)c12
9,O=C(NCCc1ccccc1)C(=O)c1c(-c2ccccc2)[nH]c2ccccc12
8,Cc1cccc(NC(=O)CSc2nc(N)c(NC(=O)c3cccs3)c(=O)[nH]2)c1C
20,CC(=O)N1c2ccc(S(=O)(=O)N3CCCC3C(=O)NCc3ccc(Cl)cc3)cc2CC1C (stereo unspecified)
15,CC1CCCCN1CCNC(=O)CCc1nnc2n(Cc3ccccc3)c(=O)c3ccccc3n12 (stereo unspecified)
5,COc1cccc(-c2nc(CS(=O)(=O)CC(=O)NCc3ccc(Cl)cc3)c(C)o2)c1
15,CCOC(=O)c1[nH]c2c(c1-c1ccc(OC)cc1)C(=O)CC(c1ccc(OC)c(OC)c1)C2 (stereo unspecified)
9,Cn1c(=O)oc2cc(S(=O)(=O)NCCCN3CCCC3=O)ccc21
5,C=C(C(=O)O)C1CCC2(C)CCCC(C)(O)C2C1 (stereo unspecified)
15,COc1ccc(Cl)cc1Nc1cc(C)nc2nc(C)nn12
17,CCN=C(NCC)SC1CC(=O)N(c2ccc(F)cc2)C1=O (stereo unspecified)
7,CC(=O)Nc1ccc(C(=O)CCl)cc1
15,Cc1cccc(N(C)C(=O)COc2cc(=O)n(C)c3ccccc23)c1
20,Cc1ccc(NC(=O)Cn2cc(S(=O)(=O)c3ccc(C)cc3)c(=O)c3cc(F)ccc32)cc1
5,O=C(OCC1OC(n2ncc(=O)[nH]c2=O)C(OC(=O)c2ccccc2)C1OC(=O)c1ccccc1)c1ccccc1 (stereo unspecified)
11,NC(=O)c1cccc([N+](=O)[O-])c1
9,O=C(/C=C/c1ccc(O)cc1)c1c(O)cc(O)cc1O
10,COC(=O)C(CCSC)NC(=O)Cn1ncc2c(=O)oc3ccc(C)cc3c21 (stereo unspecified)
15,CN1CCN(CCCNC(=O)c2cn(C)c3ccc(S(=O)(=O)N(C)C)cc3c2=O)CC1
5,Cc1cc(=O)oc2c(C)c(OCC(=O)N3CCC(C(=O)O)CC3)ccc12
5,O=S(=O)(NCCc1csc(-c2cccnc2)n1)c1cccs1
5,CN(NC(=O)c1ccc(Cl)cc1Cl)C1=NS(=O)(=O)c2ccccc21

(continued)
Hedgehog cleavage,molecule
-28,C=C(C)c1cc2c(ccc3ccc(=O)oc32)o1
3,O=C(Cc1ccccc1)NCCc1cn2ccsc2n1
7,Cc1cc(=O)oc2c3c(cc(OCC(=O)N[C@H](C(=O)O)c4ccccc4)c12)OC(C)(C)CC3
11,CC1CCCCN1S(=O)(=O)c1ccc2c(c1)C(C)(C)C(=O)N2C (stereo unspecified)
9,Cc1ccccc1C(=O)O
5,COc1ccc(C2c3c(oc4ccccc4c3=O)C(=O)N2c2ccccn2)cc1OC (stereo unspecified)
9,Cn1c(C(=O)N2CCCC(C(=O)NCc3ccc4c(c3)OCO4)C2)cc2sccc21 (stereo unspecified)
5,CCC(C)[C@H](NC(=O)[C@H](Cc1ccccc1)n1c(=O)[nH]c2ccccc2c1=O)C(=O)N1CCC[C@@H]1C(=O)O (stereo partly specified)
7,Cc1oc(-c2cccc(Cl)c2)nc1CS(=O)(=O)CC(=O)NCCCN1CCOCC1
7,Cc1c(Cc2ccccc2)c(=O)oc2cc(OCC(=O)N3CCC(C(N)=O)CC3)ccc12
10,COc1ccc2c(c1OC)C(=O)OC2
4,CCN1CCN(C(=O)c2ccc3c(c2)N(Cc2ccccc2)C(=O)c2ccccc2S3=O)CC1 (stereo unspecified)
5,COc1cc(/C=C\C(=O)NCc2ccc3[nH]c(C)cc3c2)cc(OC)c1OC
6,CCOC(=O)N1CCN(C(=O)CSc2nnc(-c3ccc(C)c(C)c3)o2)CC1
4,Cc1ccc(-c2ccc(CCC(=O)O)n2C(C)C)cc1
-7,O=C1NC(c2ccco2)Nc2sc3c(c21)CCN(Cc1ccccc1)C3 (stereo unspecified)
3,CCc1nnc(NC(=O)CSc2nccn2-c2cccc(C)c2C)s1
10,COc1cccc(C2CC(c3ccc(Cl)cc3)n3nc(N)nc3N2)c1 (stereo unspecified)
2,Cc1ccc(CNC(=O)[C@H](C)N2C(=O)N3CCc4c([nH]c5ccccc45)[C@@]3(C)C2=O)cc1
24,CCOc1ccccc1NC(=O)c1cccc2c1C(=O)N(CCOC)C2
7,Cc1csc2ncc(C(=O)NC(C)c3ccccc3)c(=O)n12 (stereo unspecified)
12,Cc1coc2c(C)c3oc(=O)c(CCC(=O)NCCN4CCOCC4)c(C)c3cc12
3,COc1ccc(C2=NS(=O)(=O)N(C)C(C(=O)N3CCC(C)CC3)=C2)cc1
21,Cc1cccc(C2CC(c3ccccc3)Nc3ncnn32)c1 (stereo unspecified)
-1,COc1ccc(C2=NOC(C(=O)N3CCN(c4ccccc4OC)CC3)C2)cc1 (stereo unspecified)

Remaining list, next part
Hedgehog cleavage,molecule
15,Cc1cc(C(=O)NCc2cccs2)n(-c2ccccc2)n1
17,O=C1CC(c2ccc(S(=O)(=O)NCc3ccncc3)cc2)CN1 (stereo unspecified)
20,CCCc1cc(=O)oc2c(C)c(OCC(=O)N3CCC(C(=O)O)CC3)ccc12
5,CC(=O)Nc1sc2c(c1C#N)CCN(Cc1ccccc1)C2
4,CCOC(=O)N1CCC(N2Cc3cccc(C(=O)Nc4cc(F)ccc4F)c3C2=O)CC1
5,Cc1oc2cc3oc(=O)c(CCC(=O)NCCCn4ccnc4)c(C)c3cc2c1C
7,CCCCCO
29,COCCCN1Cc2cccc(C(=O)O)c2C1=O
4,Cc1ccc(N(CC(=O)N2CCN(c3ccc(F)cc3)CC2)S(=O)(=O)c2c(C)nn(C)c2C)cc1
21,N#CCCN1CCN(S(=O)(=O)c2ccc(S(=O)(=O)N3CCOCC3)cc2)CC1
2,O=C(COc1ccc2c(-c3ccccc3)cc(=O)oc2c1)N1C[C@H]2C[C@@H](C1)c1cccc(=O)n1C2
4,Cc1cccc(-c2nc(CS(=O)CC(=O)NC3CCCC3)c(C)o2)c1 (stereo unspecified)
6,O=C(Nc1cc(Cl)cc(Cl)c1)c1ccc(Cn2c(=O)[nH]c3ccsc3c2=O)cc1
-4,Cn1c(=O)c2c(nc(SCCCC#N)n2Cc2ccccc2F)n(C)c1=O
3,CN1CCc2c(sc(NC(=O)c3cc(Cl)sc3Cl)c2C(N)=O)C1
24,Cc1ccc(CNS(=O)(=O)c2ccc3c(c2)C(C)(C)C(=O)N3C)cc1
5,C=C1CCC2[C@](C)(CO)[C@H](O)CC[C@@]2(C)[C@@H]1C/C=C1\C(=O)OC[C@H]1O (stereo partly specified)
7,CCOC(=O)COc1cccc2c(=O)n(CC(=O)NCCc3ccccc3)ccc12
15,CCc1ccccc1NC(=O)CCC(=O)N1CCSc2ccccc21
14,COc1ccc(C2=NS(=O)(=O)N(C)C(C(=O)N3CCOCC3)=C2)cc1OC
5,Cc1cc(=O)oc2c3c(cc(OCC(=O)NCc4ccccn4)c12)OC(C)(C)CC3
3,Cc1cc(=O)oc2c(C)c(OC(C)C(=O)NCC3CCC(C(=O)O)CC3)ccc12 (stereo unspecified)
11,Cc1nc2ccc(S(=O)(=O)Nc3ccc(-c4nc5cccnc5s4)cc3)cc2s1
2,CC1CC(C)CN(C(=O)CSc2nnc(-c3ccc(Cl)cc3)o2)C1 (stereo unspecified)

Three of the entries above in order of their number in Hedgehog cleavage, falling.
Hedgehog cleavage,molecule
6,O=C(Nc1cc(Cl)cc(Cl)c1)c1ccc(Cn2c(=O)[nH]c3ccsc3c2=O)cc1
5,Cc1oc2cc3oc(=O)c(CCC(=O)NCCCn4ccnc4)c(C)c3cc2c1C
2,CC1CC(C)CN(C(=O)CSc2nnc(-c3ccc(Cl)cc3)o2)C1 (stereo unspecified)
